# Screening data deposited in PubChem BioAssay by National Center for Advancing Translational Sciences (NCATS).
# Cruzain inh noDet: qHTS Assay for Promiscuous and Specific Inhibitors of Cruzain (without detergent) | Cruzipain (Trypanosoma cruzi), P25779 | AID 1476, 2009 | 200,000 compounds, 2.3% hits | purified cruzain, Z-FR-AMC fluorescence, no detergent | Potency, µM, inactives show max response, negative = inhibition, actives largely listed as inhibitors; active = well fitted curve in the direction sought with a large enough effect; inconclusive = small, poorly fitted or top-dose-only effect, or another doubt; inactive = no such curve, though single readings can be large; an effect the other way counts as inactive or inconclusive;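 note: plate controls were enzyme without inhibitor for no effect and buffer without enzyme for full effect; nearly all actives have a fitted effect of over 40% in size; top concentration of the series not given in the record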
# Target sequence (P25779 123-467 limits assumed): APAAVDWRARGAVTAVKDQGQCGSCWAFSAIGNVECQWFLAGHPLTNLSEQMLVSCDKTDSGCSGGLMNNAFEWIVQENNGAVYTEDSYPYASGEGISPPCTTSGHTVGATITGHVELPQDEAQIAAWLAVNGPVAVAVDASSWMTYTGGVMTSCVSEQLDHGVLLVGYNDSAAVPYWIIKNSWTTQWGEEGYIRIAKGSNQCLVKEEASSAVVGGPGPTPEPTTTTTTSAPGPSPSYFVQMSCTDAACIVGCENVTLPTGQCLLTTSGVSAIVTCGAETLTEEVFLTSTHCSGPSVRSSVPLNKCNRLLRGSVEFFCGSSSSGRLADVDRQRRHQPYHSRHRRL
#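 Purified cruzain at 1.5 nM, pre-incubated 15 min with compound at room temperature in 100 mM sodium acetate pH 5.5, 5 mM DTT, 0.00005% Triton X-100. Reaction started with 2 uM Z-FR-AMC; AMC fluorescence increase over 60 s gives rate.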
# SARS PLP yeast: qHTS of Yeast-based Assay for SARS-CoV PLP | Potency, µM (titrated, usually from 32.9 µM), inactives show top-dose activity, positive = growth rescue | 330,000 compounds, 0.19% hits | S. cerevisiae expressing SARS-CoV PLpro, growth rescue; control for the full effect not named in the record; note: 0% is about no effect; nearly all actives have a fitted effect of over 55% in size; growth read by luminescence after 48 h
# RE007 growth inh: qHTS Assay for Inhibitors of the HIV-1 protein Vpr | S. pombe RE007 Vpr strain, BacTiter-Glo ATP luminescence, 24 h; control for the full effect not named in the record | Potency, µM (titrated, usually from 92.2 µM), without a hit: top-dose activity change, negative = less growth | 360,000 compounds, 0.21% hits; active = well fitted falling curve with a large enough effect; inconclusive = small, poorly fitted or top-dose-only effect; inactive = no such curve, though single readings can be large or run the other way;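 note: % is set by controls: 0 for no effect and ±100 for the full control effect; nearly all actives have a fitted effect of over 50% in size; the assay follows cell death caused by Vpr and the record does not say whether a fall means rescue or toxicity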
#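 Fission yeast RE007 carrying one integrated HIV-1 vpr copy, seeded at OD 0.01 in PMG+AL medium with 23 nL pinned compound. Grown 24 h at 30 degrees; viability read by BacTiter-Glo luminescence after 5 min.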
# Cruzain Triton: qHTS Assay for Promiscuous and Specific Inhibitors of Cruzain (with detergent). Cruzipain (Trypanosoma cruzi), P25779. purified cruzain, Z-FR-AMC fluorescence, 0.01% Triton. Potency, µM, for the others: max response, negative = inhibition, actives largely listed as inhibitors. 200,000 compounds, 0.43% hits; active = well fitted curve in the direction sought with a large enough effect; inconclusive = small, poorly fitted or top-dose-only effect, or another doubt; inactive = no such curve, though single readings can be large; an effect the other way counts as inactive or inconclusive;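 note: plate controls were neutral wells for no effect and buffer without enzyme for full effect; nearly all actives have a fitted effect of over 40% in size; top concentration of the series not given in the record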
#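 Purified cruzain (1.5 nM final) was preincubated with compounds for 15 min at room temperature in 100 mM sodium acetate pH 5.5, 5 mM DTT, 0.01% Triton X-100. Reaction started with 2 uM Z-FR-AMC; AMC fluorescence change over 60 s gave activity.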
# NS1 function inh: qHTS Assay for Inhibitors of Influenza NS1 Protein Function; S. cerevisiae slowed by influenza A NS1, growth recovery by OD600; Potency, µM (series often up to 46.1 µM), inactives show at the highest dose activity, positive = more growth; 270,000 compounds, 0.4% hits; AID 2326, 2010; note: actives are rising curves; nearly all actives have a fitted effect of over 50% in size
#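 In this qHTS, NS1 from influenza A is expressed in budding yeast, where it slows growth. Cells are switched from glucose to 2% galactose medium (pH 6.0, -URA), treated with compound, and growth recovery is read at OD600.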
# MARV entry inh: qHTS for inhibitors of binding or entry into cells for Marburg Virus. Potency, µM (titrated, usually from 37.8 µM), without a hit: top-dose activity change, negative = inhibition, hits mostly inhibitors. Marburg virus pseudotyped entry inhibition, cell reporter; control for the full effect not named in the record; about a third of the inactives were read at about 46 µM. 300,000 compounds, 1.8% hits; active = well fitted inhibition curve with a large enough effect; inconclusive = small, poorly fitted or top-dose-only effect, or effect the other way; inactive = flat fitted curve, though single readings scatter; tested in HEK293 cells; about a fifth of its hits are not listed in these tables; note: % is set by controls: 0 for no effect and ±100 for the full control effect; luciferase read-out
# Lassa entry inh: qHTS for Inhibitors of binding or entry into cells for Lassa Virus. Lassa virus pseudotype entry inhibition, cell reporter; control for the full effect not named in the record. Potency, µM (top dose mostly 37.9 µM), for the others: at the top dose activity change, negative = inhibition, usual class: inhibitors. 300,000 compounds, 1.2% hits. AID 540256, 2011; active means well fitted inhibition curve with a large enough effect; inconclusive means small, poorly fitted or top-dose-only effect, or effect the other way; inactive means flat fitted curve, though single readings scatter; tested in HEK293 cells; note: % is set by controls: 0 for no effect and ±100 for the full control effect; nearly all actives have a fitted effect of over 50% in size; luciferase read-out
# StopGo reporter: High Throughput Screening for Foot and Mouth Disease Virus Antivirals; human cells with a luciferase reporter of 2A StopGo recoding; control for the full effect not named in the record; Potency, µM (highest dose often 57.9 µM), inactives show top-dose signal change, negative = less light; 410,000 compounds, 1.2% hits; AID 1159524, 2015; active = well fitted falling curve with a large enough effect; inconclusive = small, poorly fitted or top-dose-only effect; inactive = no such curve, though single readings can be large or run the other way; tested in HEK293T cells; note: % is set by controls: 0 for no effect and ±100 for the full control effect; nearly all actives have a fitted effect of over 45% in size; luciferase light after 4 h
# * marks the source's active call; other numbers are inactive results; ? = inconclusive; · = no result given; & = joins results of further samples; [ ] = another dose, or the depositor's remark. Unless noted, calls come from the whole dose curve; as a rule, active means well fitted rising curve with a large enough effect; inconclusive means small, poorly fitted or top-dose-only effect; inactive means no such curve, though single readings can be large or run the other way. Potency is the fitted concentration of half-maximal effect. An unsorted share of the library; any-hit rate near 4.7%.
SMILES,Cruzain inh noDet,SARS PLP yeast,RE007 growth inh,Cruzain Triton,NS1 function inh,MARV entry inh,Lassa entry inh,StopGo reporter
O=C(CCc1ccccc1Cl)Nc1cccc(S(=O)(=O)N2CCCC2)c1,·,6.0%,1.4%,·,12.6%,?,-24.8%,7.4%
CCn1c(C)nc2cc(C(=O)NNS(=O)(=O)c3c(F)cc(F)c(Cl)c3F)ccc21,·,-2.2%,-5.7%,·,1.5%,12.4%,-13.2%,-16.7%
Cc1ccc(S(=O)(=O)N2CCC(C(=O)OCC(=O)NC3(C#N)CCCCC3)CC2)cc1C,·,-0.3%,6.2%,·,·,-10.6%,10.1%,-9.0%
Cc1nn(Cc2ccccc2)c(Cl)c1C(=O)OCC(=O)N1CCCC1,·,4.7%,7.3%,·,·,0.0%,1.1%,-9.6%
O=C(CNC(=O)c1ccccc1)N/N=C/C=C/c1ccccc1,·,-0.4%,-0.4%,·,9.5%,·,·,-9.5%
CCCCN(CC)CCCNC(=O)CCN1N=C(c2ccc(OC)cc2)CCC1=O,-0.9%,·,·,-3.0%,·,·,3.8%[46.1 µM],0.1%
CCCCC(=O)NC1(C(F)(F)F)NC(=O)N(Cc2ccccc2)C1=O (stereo unspecified),·,-3.2%,5.4%,·,·,·,11.5%,-2.6%
CC(C)(C)NC(=O)CN1CCC(O)(c2ccc3c(c2)OCO3)CC1,-1.2%,-1.9%,6.2%,0.7%,8.7%,1.9%,1.1%,-16.2%
COc1ccc(/C=C/C(=O)OCC(=O)NCc2ccccc2Cl)cc1OC,·,2.4%,0.7%,·,·,22.4%,-6.5%[46.1 µM],-3.6%
COc1cccc(/C=N/NC(=O)c2ccccc2N(Cc2ccccc2)S(=O)(=O)c2ccccc2)c1OC,12.1%,2.5%,?,3.2%,?,-26.7%,?,0.9%
CS(=O)(=O)c1cnc(-c2ccccc2)nc1Oc1ccc(F)cc1,2.4%,3.9%,0.0%,0.1%,5.7%,?,-3.4%,-7.4%
COc1cc(C2C(C(=O)c3ccco3)=C(O)C(=O)N2CCc2ccccc2)ccc1O (stereo unspecified),-13.3%,5.0%,17.3%,-3.0%,?,14.9%,19.1%,2.1%
O=C(/C=C/c1ccccc1)NCC(=O)N/N=C/c1cccs1,·,0.0%,-8.2%,·,-36.2%,·,·,5.7%
O=C(Cc1ccccc1)NN1C(=O)C2C(C1=O)C1C=CC2C12CC2 (stereo unspecified),15.5%,-2.5%,·,-2.4%,1.0%,1.3%,-5.9%,-17.7%
COc1ccc(CCNC(=O)C(=O)NCC2OCCN2S(=O)(=O)c2ccc(OC)c(OC)c2)cc1 (stereo unspecified),·,-8.0%,6.9%,·,-6.4%,·,·,?
COC(=O)c1cc(C#N)c(N2CCN(C)CC2)nc1C,·,0.3%,-4.2%,·,·,-7.0%[14.2 µM],8.2%,9.3%
CC1CN(C(=O)N2CCC(C(=O)NCc3cccs3)CC2)c2ccccc2O1 (stereo unspecified),-5.4%,·,·,-1.3%,·,·,-0.7%[46.1 µM],-22.8%
O=C(NCC1CCCO1)c1cc(-c2ccco2)nc2ccccc12 (stereo unspecified),26.8%,5.6%,-12.5%,-13.5%,-11.7%,21.6%,-0.8%,-6.5%
COc1cccc2c(=O)n(CC(=O)NC3CCCC3)ccc12,0.1%,8.0%,-10.9%,2.9%,-28.5%,·,·,22.8%
Cc1ccc(C)c(C(=O)COC(=O)c2c(-c3ccccc3)noc2C)c1,·,1.5%,16.9%,·,·,-6.9%,-24.4%[46.1 µM],-21.6%

# Compound profiles, from the list above.
# Listed for O=C(/C=C/c1ccccc1)NCC(=O)N/N=C/c1cccs1 : Cruzain inh noDet: ·; SARS PLP yeast: 0.0%; RE007 growth inh: -8.2%; Cruzain Triton: ·; NS1 function inh: -36.2%; MARV entry inh: ·; Lassa entry inh: ·; StopGo reporter: 5.7%
# Listed for CCn1c(C)nc2cc(C(=O)NNS(=O)(=O)c3c(F)cc(F)c(Cl)c3F)ccc21 : Cruzain inh noDet: ·; SARS PLP yeast: -2.2%; RE007 growth inh: -5.7%; Cruzain Triton: ·; NS1 function inh: 1.5%; MARV entry inh: 12.4%; Lassa entry inh: -13.2%; StopGo reporter: -16.7%

# (listing goes on)
SMILES,Cruzain inh noDet,SARS PLP yeast,RE007 growth inh,Cruzain Triton,NS1 function inh,MARV entry inh,Lassa entry inh,StopGo reporter
CCOC(=O)c1ccc(OCC2c3cc(OC)c(OC)cc3CCN2C(=O)Cc2ccc(OC)c(OC)c2)cc1 (stereo unspecified),?,·,·,0.6%,·,·,?,-15.4%
O=C1c2ccccc2C(=O)N1CCCSc1nc2ccccc2o1,2.3%,-0.5%,-28.1%,-5.3%,-108.0%,17.8%,-18.9%,-11.0%
CC(=O)OCC[N+](C)(C)C,-3.7%&11.3%&-0.6%,5.9%&6.8%,14.4%&14.4%&35.8%[18.4 µM],1.5%&-1.9%&0.8%,?,-30.6%&-0.2%&-0.2%&-0.2%&-0.2%&-0.2%&-0.2%&-0.2%&-0.2%,3.6%&-7.1%,-8.9%&-10.9%&10.7%&24.1%&-5.5%&-6.2%
CC(C)(C)c1csc(NC(=O)c2c(F)c(F)c(F)c(F)c2F)n1,·,-16.4%,-14.6%,·,-78.3%,·,·,?
COc1cc(C(=O)NCC(=O)N/N=C/c2ccc(OC(=O)c3ccco3)cc2)cc(OC)c1OC,·,0.8%,-8.4%,·,·,-5.1%[14.2 µM],1.8%,8.1%
CCOC(=O)C1C2C=CC3(CN(CCc4ccccc4)C(=O)C13)O2 (stereo unspecified),-0.6%,2.7%,-9.5%,0.7%,0.0%&-3.8%,2.9%&2.9%,6.9%,-11.7%
Cc1ccc2nc(-c3cccc(NC(=O)c4ccco4)c3)[nH]c2c1,?,-8.9%,-18.5%,-4.5%,-14.5%,5.7%,16.0%,29.0%
COCCCNC(=O)CN(c1cc(OC)ccc1OC)S(=O)(=O)c1ccccc1,11.5%,22.9%,5.2%,6.0%,1.2%,2.5%,-7.2%,-12.9%
COc1ccc(N2CCN(C(=O)c3oc4ccccc4c3C)CC2)cc1,·,-4.9%,-12.2%,·,·,-25.8%[46.1 µM],·,5.8%
COCc1cc(C)nc(N)c1C#N,-7.3%,-2.7%,12.9%,-2.3%,-47.4%,-3.2%&-3.2%,3.7%,-22.2%
CCN(CC)C(=O)/C(=C\c1ccc2c(c1)OCO2)NC(=O)c1ccc(Br)cc1,-6.2%,3.2%,-17.3%,-14.6%,-1.0%,?,-3.3%,94.4%[activator]
Cc1cccc(OCCCN2CCCCCC2)c1,-0.8%,2.0%,0.3%,4.9%,1.7%[9.22 µM],?,?,·
Cc1cc(C(=O)OCC(=O)NC2CCCCC2)c(C)o1,6.4%,3.1%,-4.9%,-9.2%,-5.0%,-2.4%,?,30.4%[activator]
Cc1cc(N2C3CCC2CC(O)(c2ccc(F)cc2)C3)nc(-c2ccccc2)n1 (stereo unspecified),0.3%,-10.3%,2.7%,3.3%,-39.0%,?,-25.4%,·
Cc1nc2c(C)cccc2c(SC(=N)N)c1CC=C(Cl)Cl,·,-0.4%,-11.9%,·,-1.5%,·,·,-3.0%
O=C(CN1C(=O)NC2(CCCCC2)C1=O)Nc1ccccc1Cl,-3.3%,-1.1%,6.2%,-0.6%,-9.5%,18.9%,-1.9%,-19.6%
COc1ccc(-c2nc3ccccc3o2)cc1NC(=O)COc1cc(C)cc(C)c1,-0.6%,·,·,2.1%,·,·,0.4%[46.1 µM],6.9%
COc1cc(/C=N/Nc2cc(C)nc(NS(=O)(=O)c3ccc(C)cc3)n2)ccc1O,-3.1%,-0.3%,28.3%,-9.9%,-36.0%,?,?,14.8%
CC(=O)c1cc2c(cc1N)OCO2,-2.2%,-4.0%,-17.2%,0.6%,6.0%,14.7%,4.4%,34.2%[activator]
COc1ccc(C(CNCC(O)COc2c(C)ccc(C)c2C)N(C)C)cc1 (stereo unspecified),·,-1.5%,-20.9%,·,-2.6%,·,·,-11.0%
CNC(=O)c1c[nH]c2ccc(S(=O)(=O)Nc3cccc(SC)c3)cc2c1=O,·,0.4%,-2.9%,·,7.7%,·,·,-11.7%
CCOc1ccccc1N1CC(c2nc3ccccc3n2CCCCOc2cc(C)ccc2C)CC1=O (stereo unspecified),?,·,·,-12.9%,·,?,?,-20.3%
COc1cccc(C2C3=C(N=c4s/c(=C\c5cccc(O)c5)c(=O)n42)c2ccccc2CC3)c1OC (stereo unspecified),10µM*,-14.2%,-0.6%,-0.2%,?,-23.1%,?,-17.6%
O=C(Nc1ncc([N+](=O)[O-])s1)c1cccc([N+](=O)[O-])c1,·,-7.7%,-19.5%,·,-76.3%,·,·,-73.5%
CC1Cc2ccccc2N1S(=O)(=O)c1ccc(Cl)nc1 (stereo unspecified),·,0.0%,10.3%,·,-4.0%,·,·,24.2%
Cc1nc(Nc2nc(CSc3ccc(Cl)cc3)cc(=O)[nH]2)nc2ccccc12,-2.5%,-16.2%,-1.2%,2.0%,13.0%,6.5%,12.6%,-15.3%
N=c1n(CCN2CCOCC2)c2ccccc2n1Cc1ccccc1Br,4.6%,2.8%,-10.2%,-4.6%,-13.5%,?,-20.1%,-26.4%
COc1cc2[nH]c(C(=O)N3CCc4ccccc4C3)cc2c(OC)c1OC,·,-6.0%,-5.1%,·,-21.3%,?,?,-17.0%
Cc1ccc(C(=O)NCC(=O)Nc2ccncc2)cc1C,·,-0.1%,18.4%,·,-3.0%,16.5%[46.1 µM],-14.8%[46.1 µM],-16.7%
CC(C)Nc1nc(Cl)nc(Nc2ccccc2)n1,·,14.8%,-2.6%,·,-4.3%,?,6.6%[46.1 µM],13.8%
